Source: PubChem
TRPML1 blocker: blocks the human TRPML1 channel. 390,000 compounds, 0.02% hits. TRPML1-inducible cells, Ca2+ dye fluorescence, FDSS; active compounds read low; inhibition of EC80 agonist-evoked calcium signal. AID 624415. Q9GZU1. activity change, negative = inhibition, % (no concentration beside the values); in the data active means activity change below about -50%; inconclusive means about -30% to -50%; inactive means above about -30%;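 also: stimulus is agonist 54-4 at its EC80 concentration; % is scaled to controls: 0 for no effect and ±100 for the full control effect; compound concentration not given in the record; the text of the record puts the active cut at -80%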
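TRPML1-DL cells, Tet-induced overnight (~16 h, 37 °C) at 1,500 cells/well, were loaded with Ca8 no-wash dye plus quencher for 45-90 min at room temperature. Compounds were pinned during FDSS kinetic reading; agonist 54-4 at EC80 (4 uM final) then added.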
PINK1 modulator: modulators of PINK1 expression; PINK1 immunofluorescence, high-content cytometry, 24 h; Potency, µM (series often up to 76.6 µM), inactives show at the top dose activation (PINK1 increase), most hits filed as activators; 410,000 compounds, 0.2% hits; AID 624263; active = well fitted activation curve with a large enough effect; inconclusive = small, poorly fitted or top-dose-only effect; inactive = flat fitted curve, though single readings scatter; cell line not stated here;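 also: potency is read from the fitted curve at half-maximal effect; % of control where 0% means no effect; nearly all actives have a fitted effect of over 65% in size; a mitochondrial uncoupler was the plate control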
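Stable cell line, 250 cells/well, 12 h attachment; compounds pinned at 5 concentrations, 24 h; CCCP control. Fixed with nuclear dye, primary antibodies 12 h at 10 degrees C, secondary plus cell stain; laser-scanning cytometer read.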
D2 agonist: activates the human D2 dopamine receptor | P14416 | DiscoveRx PathHunter D2 beta-arrestin, luminescence, 90 min; 100% = 57 uM dopamine signal | activation, % (test concentration not listed) | 360,000 compounds, 0.084% hits; in the data active = activation above about 40%; inconclusive = about 15% to 40%; inactive = below about 15%; also: compound concentration not given in the record; the text of the record calls up to 30% inactive
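Agonist mode: compounds alone added to overnight-plated D2 PathHunter cells for 90 min at 37 C, with 57 uM final dopamine (EC100) defining full response. Beta-arrestin recruitment detected by chemiluminescent reagent, read after 1 h at ambient temperature.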
D2 potentiator: positive allosteric modulators of human D2 dopamine receptor; DiscoveRx D2 beta-arrestin cells, luminescence, 90 min; 100% = 57 uM dopamine signal; potentiation, % (concentration not given with the values); 360,000 compounds, 0.23% hits; AID 624464; active = potentiation of 50% or more; inconclusive = 30% to 50%; inactive = 30% or less;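 also: tested on top of an EC20 dose of dopamine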
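PathHunter beta-arrestin assay in DiscoveRx D2 cells. Compounds were added with an EC20 of dopamine (50 nM final) for 90 min at 37 deg C. Luminescence was read 1 h after detection reagent, with 57 uM dopamine as the EC100 control.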
TRPML1 ag: human mucolipin-1 channel agonism; activation, % (test concentration not listed); TRPML1-expressing cells, Ca2+ dye fluorescence, FDSS; host cell line not named in the record; reference of the full effect not given here; AID 624414; 410,000 compounds, 0.12% hits; in the data active = activation above about 50%; inconclusive = about 30% to 50%; inactive = below about 30%; also: 0% is about no effect; the text of the record puts the active cut at 80%
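Tetracycline-induced TRPML1-DL cells are seeded and incubated overnight before loading with a no-wash Ca2+ dye and quencher. Agonist activity is taken from the 110 s fluorescence read following compound pin-transfer on an FDSS, before EC80 54-4 challenge.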
Six1-Eya2 inh: inhibitors of human Six1/Eya2 interaction; AID 651725; 360,000 compounds, 0.56% hits; activity change, % (test concentration not listed); AlphaScreen GST-Six1/His-Eya2 binding, biochemical; active compounds read low; control for the full effect not named in the record; Q15475+O00167; in the data active = activity change below about -65%; inconclusive = about -30% to -65%; inactive = above about -30%; also: % is scaled to controls: 0 for no effect and ±100 for the full control effect
Target sequence (O00167 whole entry, looked up): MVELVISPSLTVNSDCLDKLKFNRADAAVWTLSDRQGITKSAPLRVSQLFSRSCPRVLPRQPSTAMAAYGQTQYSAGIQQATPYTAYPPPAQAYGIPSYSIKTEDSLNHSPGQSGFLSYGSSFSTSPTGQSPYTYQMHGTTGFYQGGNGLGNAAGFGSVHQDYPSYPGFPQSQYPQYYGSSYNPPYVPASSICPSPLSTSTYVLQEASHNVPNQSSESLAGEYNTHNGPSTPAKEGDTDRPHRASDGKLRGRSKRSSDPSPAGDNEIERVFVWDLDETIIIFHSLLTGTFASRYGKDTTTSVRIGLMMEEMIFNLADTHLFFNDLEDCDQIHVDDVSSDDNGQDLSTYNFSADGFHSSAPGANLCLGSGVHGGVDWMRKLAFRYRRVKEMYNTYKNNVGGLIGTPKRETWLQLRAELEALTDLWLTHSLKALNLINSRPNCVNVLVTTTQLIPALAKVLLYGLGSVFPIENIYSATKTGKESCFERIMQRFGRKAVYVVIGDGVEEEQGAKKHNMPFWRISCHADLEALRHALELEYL
Target sequence (Q15475 whole entry, looked up): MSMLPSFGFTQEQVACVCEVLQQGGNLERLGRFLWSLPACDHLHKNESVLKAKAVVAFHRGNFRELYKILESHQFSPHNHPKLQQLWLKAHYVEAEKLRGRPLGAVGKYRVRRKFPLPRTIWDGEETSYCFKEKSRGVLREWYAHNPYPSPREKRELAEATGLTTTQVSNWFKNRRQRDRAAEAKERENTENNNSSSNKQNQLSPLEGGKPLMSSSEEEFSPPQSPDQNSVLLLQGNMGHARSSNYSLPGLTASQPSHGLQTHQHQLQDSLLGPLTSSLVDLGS
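Homogeneous AlphaScreen proximity assay pairing GST-Six1 with His-tagged Eya2 (added as 5X mix: 250 nM and 500 nM) in 50 mM Tris pH 8.0, 300 mM NaCl, 1 mM TCEP. Glutathione donor and nickel acceptor beads; 1 h, 37 °C, dark.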
* = called active by the depositor; u = inconclusive; x = no result given; & = joins results of further samples; [ ] = dose if it differs, or a comment.

SMILES	TRPML1 blocker	PINK1 modulator	D2 agonist	D2 potentiator	TRPML1 ag	Six1-Eya2 inh
Cc1ccc2[nH]cc(/C=C/c3cc[n+](C)cc3)c2c1	28	3.5µM*	-3.7	-7	3.6	0
C/C(=N\Nc1nc(C(=O)O)cs1)c1ccccc1	21	-1.2%	-4.6	-14	1.6	u
Cc1ccc(-n2nc3cc(Cl)c(NC(=O)c4ccco4)cc3n2)cc1	17	11%[38.3 µM]	-0.2	-4	-0.7	1
CCOc1ccc(NC(=O)COC(=O)c2ccc3c(c2)OCCO3)cc1	9	8.8%	1.3	0	0.4	11
COc1ccc(NC(=O)C2(C)CCN2C2Cc3ccccc3C2)cc1OC (configuration not stated)	x	0.3%	1.1	1	-0.8	-12
CC(C)C[C@H]1CNC(=O)C(=O)N1CC1CCN(CCC(C)c2ccccc2)CC1 (some centres not stated)	18	2.5%	-5.1	-14	-0.3	-8
CC(C)=C[C@@H]1C[C@H](C)[C@H]2CC[C@H](C)c3c(O)c(O)c(C)c1c32	-4	3.2%	12	11	-0.7	-6
C/C(CC(=O)Nc1cccc(Cl)c1Cl)=N\NC(=O)c1ccccc1Br	2	-2.3%	0.9	-18	-0.9	-2
CC(C)c1ccc(NC(=O)CCNC(=O)N2CC(=O)Nc3ccccc32)cc1	-2	0.1%	4.6	-31	-1.3	13
COc1ccc(Nc2nnc(SCC(=O)c3cc4ccccc4o3)s2)cc1	1	-0.3%	0.9	0	0.5	8
O=[N+]([O-])c1c(NCCCO)cc(N2CCN(Cc3ccc4c(c3)OCO4)CC2)c2nonc12	-10	-0.8%	-1.0	-21	2.1	-8
CC1=C(C(=O)N(C)C)CC(CC(=O)NC2CCCCC2)C(=O)N1Cc1ccc(F)cc1 (configuration not stated)	x	2.0%	-3.6	-4	-0.5	-1
CC(C)NC(=O)c1ccc(C(C)C)cc1	-16	-0.4%	-2.4	-4	-0.2	5
N#Cc1c(NC(=O)C2CC(Cl)=CCC2C(=O)O)sc2c1CCCC2 (configuration not stated)	0	0.0%	-6.0	6	-0.8	8
Cc1ccc(S(=O)(=O)N2CCN(Cc3nc4ccccc4n3C)CC2)cc1	-8	-7.1%[38.3 µM]	2.5	-10	-0.1	-2
CC(C)OCCOc1ccc2oc(-c3ccco3)cc(=O)c2c1	-7	0.3%	4.4	-6	0.7	-6
CCCCCCSc1ccc([C@H]2N[C@@](Cc3ccccc3)(C(=O)OC)[C@H]3C(=O)N(CC)C(=O)[C@@H]23)cc1	-5	1.5%	-3.6	-9	1.6	-6
Cc1ccccc1NS(=O)(=O)c1cc(C(=O)N2CCCC2)ccc1C	-7	0.1%	-0.1	15	-1.6	6
CCOC(=O)c1sc(=S)n(C)c1NC(=O)c1ccc(OC)cc1	8	-2.6%	-10	-4	-0.1	-8
CCCCCCCCCCOC(=O)Cn1c(COc2ccc(OC)cc2)[n+](C)c2ccccc21	-10&45	-1.5%&-2.2%	-3.0&-9.6	-53&-3	-0.1&1.9	-4&-10
O=c1[nH]cc(O)c(=O)[nH]1	x	1.9%	-4.8	-23	x	2
CCN(CC)S(=O)(=O)c1cc(C(=O)Nc2ccccc2[N+](=O)[O-])ccc1Cl	-3	-2.2%	-1.7	-2	-0.4	u
COc1ccc(CCNC(=O)c2ccc3nc(CCc4ccccc4)oc3c2)cc1OC	8	11%	x	x	3.4	x
Cc1ccc(NC(=O)CN(C)C(=O)Cn2nnc(-c3ccccc3)n2)cc1	-15	8.3%	2.4	-2	-0.6	4
CCn1nc(C)cc1C(=O)N1CCCC(C(=O)c2cccc(OC)c2)C1 (configuration not stated)	-13	-0.5%	-0.5	-10	-0.3	5
Next section:
SMILES	TRPML1 blocker	PINK1 modulator	D2 agonist	D2 potentiator	TRPML1 ag	Six1-Eya2 inh
CCOc1ccc2nc(N3CCCC(C(=O)NCC4CCCO4)C3)sc2c1 (configuration not stated)	-4	0.1%	0.3	-5	-0.5	-8
CCN(CC)C(=O)C1=C(C)N(Cc2ccccc2)C(=O)C(CC(=O)NCC2CCCCC2)C1 (configuration not stated)	12	2.7%	-5.9	2	-0.6	-3
Cc1cc(-c2onc(C)c2C(=O)O)no1	6	-3.0%	-1.6	-19	-0.5	-17
Cc1ccc(NC(=O)NC(=O)CN2CCN(c3ccc(O)cc3)CC2)c(C)c1	-9	9.3%	4.1	12	0.1	-2
COc1cccc(CN2CCNC(=O)C2CC(=O)NC2CCCCC2)c1OC (configuration not stated)	7	2.2%	-3.8	-15	0.0	21
Cc1ccccc1CSc1nnc(-c2cnccn2)n1C	19	2.5%	-5.8	5	-0.2	-3
NC(N)=NS(=O)(=O)c1ccc(NC(=S)NC(=O)c2sc3ccccc3c2Cl)cc1	17	1.3%	-5.7	-15	0.3	-9
Cc1cc(NC(=O)CSc2nc3ccccc3c(=O)n2CCCC(=O)NCc2ccco2)n[nH]1	-12	x	-2.8	18	0.5	-2
CCNC(=S)NNC(=O)c1cc(-c2ccc(OCC)cc2)nc2ccccc12	-16	11%[38.3 µM]	-10	2	1.4	-11
COc1ccc(C(=O)Nc2ccc3c(c2)N(C2CCCC2)C(=O)c2ccccc2S3)cc1OC	-11	3.3%	x	x	0.7	x
COc1ccc(NC(=O)C[C@H]2C(=O)N(c3ccccc3)C[C@@H]2Cc2ccccc2)cc1	x	1.8%	1.0	x	x	-6
O=C1NC(=O)C(c2ccccc2)N1 (configuration not stated)	-12	1.3%	-2.2	-4	-0.2	3
CCC(C)(C)NC(=O)CN(C(=O)C(=O)Nc1ccc2c(c1)OCCO2)C(C)(C)CC	5	0.9%	-1.9	-5	-1.8	1
O=C(Nc1ccc2oc(-c3cccnc3)nc2c1)c1ccc([N+](=O)[O-])o1	3	-2.5%	2.7	12	0.0	4
Cn1cccc1C(=O)NCCc1ccccc1	-14	-0.6%	-2.6	-5	0.4	-9
C/C(=N\NC(=O)CCC(=O)Nc1ccc(C)c(C)c1)C1CC1	17	0.5%	-1.5	4	-0.5	0
Cc1nn(C)cc1/C=N/NC(=S)Nc1ccc(Cl)cc1Cl	19	0.7%	1.0	7	-0.4	-10
COc1ccc(OC)c(C2C(C(=O)Nc3cccnc3)=C(C)NC3=C2C(=O)CCC3)c1 (configuration not stated)	1	1.8%	-1.8	7	-0.9	-2
CCN(Cc1cc2ccccc2[nH]c1=O)C(=O)C1CCCCC1	-10	-1.5%	-0.2	-3	-1.0	11
Cc1ccccc1NC1=NC(=S)N(c2ccccc2)C12CCCCC2	-9	1.8%	0.3	-11	u	-2
CC1CCCCC1NC(=O)COC(=O)c1c2c(nc3ccccc13)/C(=C/c1ccco1)CC2 (configuration not stated)	-8	8.4%	-2.9	-15	1.2	u
O=S1(=O)CC(N2CCN(CCO)CC2)CN1C1CCCC1 (configuration not stated)	-13	1.9%	-2.3	2	1.9	5
CCOc1ccc(N2C(=O)CC(N(CCc3ccccc3)C(=O)/C=C/C(=O)O)C2=O)cc1 (configuration not stated)	-3	-1.1%	1.3	-3	0.5	-2
Cc1ccc(NS(=O)(=O)c2ccc(OCC(N)=O)cc2)cc1	-18	-2.8%	-0.6	-4	0.4	2
Cc1cc(NC(=O)CCN2C(=O)/C(=C\c3ccccc3Cl)SC2=S)no1	-12	u	-4.3	-5	-0.7	1

Compounds listed so far that contain a thiophene ring, fused or not (two):
SMILES	TRPML1 blocker	PINK1 modulator	D2 agonist	D2 potentiator	TRPML1 ag	Six1-Eya2 inh
N#Cc1c(NC(=O)C2CC(Cl)=CCC2C(=O)O)sc2c1CCCC2 (configuration not stated)	0	0.0%	-6.0	6	-0.8	8
NC(N)=NS(=O)(=O)c1ccc(NC(=S)NC(=O)c2sc3ccccc3c2Cl)cc1	17	1.3%	-5.7	-15	0.3	-9

(cont.)
SMILES	TRPML1 blocker	PINK1 modulator	D2 agonist	D2 potentiator	TRPML1 ag	Six1-Eya2 inh
COc1ccc(/C(=C/c2ccc(OC(F)F)c(OC)c2)C(=O)O)cc1OC	-1	-1.1%	0.3	1	-0.2	-4
COC(=O)c1ccc(CSc2nc3c([nH]c4ccccc43)c(=O)n2-c2cccc(Cl)c2)o1	15	u	x	x	2.1	x
CCOC(=O)c1cn(-c2ccccc2)nc1-c1ccncc1	0	-2.8%	-3.4	-4	-0.7	-13
CN(C)S(=O)(=O)c1ccc(SCC(=O)Nc2ccc3c(c2)OCCO3)nc1	17	-1.9%	-2.2	-8	-0.4	6
COc1cc2c(cc1OC)C(O)C(O)(CO)C(C(=O)O)C2c1cc(OC)c(OC)c(OC)c1 (configuration not stated)	3	-1.8%	-1.8	0	-0.6	1
O=C(CNC(=O)N1CC(=O)Nc2ccccc21)Nc1ccccc1F	-9	-1.7%	-1.1	-10	-0.7	1
COc1cccc(N2CCN(c3nc(C)cc(C)c3C#N)CC2)c1	-11	-0.2%	2.3	1	2.1	-2
N#Cc1cc(N)ccc1-n1cccc1	-3	0.9%	-2.3	1	6.1	-6
COc1ccc(OCC(=O)OCc2cc(=O)n3nc(C4CCCCC4)sc3n2)cc1	-16	0.5%	x	x	-0.3	x
CC(=O)Nc1cc(-c2ccc(N3CCN(C)CC3)cc2)cn2c(-c3cccc(C(=O)N(C)C)c3)cnc12	x	1.3%	3.9	-8	0.4	-1
COc1cccc(/C=N\NC(=O)C2C(=O)NCC2c2ccccc2)c1O (configuration not stated)	-17	-1.8%	-3.3	-11	0.6	-86*
CCCCNC(=O)Cc1ccc(C)cc1	9	0.9%	-1.6	-6	0.6	4
O=C(N/C(=C/c1ccco1)C(=O)N1CCCC1)c1cccs1	24	-1.0%	-0.7	6	0.2	4
CC1CCN(S(=O)(=O)c2ccc(NC(=O)[C@@H]3CCCN3C(=O)c3cccs3)cc2)CC1	-5	0.7%	0.4	-10	-0.3	4
CCN(CC(=O)NCc1cccs1)C(=O)c1ccc([N+](=O)[O-])o1	13	0.1%	6.2	23	0.6	-10
COc1cccc(/C=C/c2nc(C#N)c(N3CCC(C(N)=O)CC3)o2)c1	24	-0.4%	x	x	-0.1	x
O=C(c1cccc(S(=O)(=O)N2CCCC2)c1)N1CCN(c2ccccc2F)CC1	-1	-1.6%[38.3 µM]	4.9	10	1.7	-2
O=C(c1ccc2c(c1)N(Cc1ccc(Cl)cc1)C(=O)c1ccccc1S2(=O)=O)N1CCN(Cc2ccccc2)CC1	2	0.6%	x	x	-0.2	x
CCOc1ccc(C2CC(c3cccc(OC)c3)Nc3nc(N)nn32)cc1 (configuration not stated)	-2	2.4%	0.9	-1	0.2	-1
CCC(C)NCCOc1ccc(Br)cc1 (configuration not stated)	-13	0.2%	-2.7	-44	0.4	4

Some entries already given with just D2 potentiator and PINK1 modulator:
Molecule	D2 potentiator	PINK1 modulator
O=C1NC(=O)C(c2ccccc2)N1 (configuration not stated)	-4	1.3%
COc1cccc(CN2CCNC(=O)C2CC(=O)NC2CCCCC2)c1OC (configuration not stated)	-15	2.2%
O=C(Nc1ccc2oc(-c3cccnc3)nc2c1)c1ccc([N+](=O)[O-])o1	12	-2.5%
CCN(CC)C(=O)C1=C(C)N(Cc2ccccc2)C(=O)C(CC(=O)NCC2CCCCC2)C1 (configuration not stated)	2	2.7%
